FGF22 binding: binders of recombinant human FGF22 by thermal shift; calls only at 9.99 µM; Q9HCT0; AID 651658; hit rate 1.5% among 340,000; SYPRO orange fluorescence; percent of sucrose octasulfate shift, DMSO zero;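 active = melting point raised past a set limit in the mean and every replicate; three in four hits are not shown here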
Target sequence (Q9HCT0 whole entry, looked up): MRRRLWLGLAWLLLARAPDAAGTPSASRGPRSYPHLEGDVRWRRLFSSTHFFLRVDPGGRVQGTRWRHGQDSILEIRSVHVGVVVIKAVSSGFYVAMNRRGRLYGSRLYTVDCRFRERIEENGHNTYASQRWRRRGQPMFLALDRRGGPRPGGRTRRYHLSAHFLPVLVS
MLL AF4-AF9 inh: blocks AF4 peptide binding to human AF9; P42568; AlphaScreen, biotin-AF4 peptide binding to FLAG-AF9; inhibition, % at 10 µM; hit rate 0.47% among 350,000;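 active = every replicate reaching a set inhibition limit, whatever the replicate mean, cut at about 25% in these data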;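 also: 0% = plate neutral control median and 100% = total signal loss; the record names both 10 and 1 µM as test concentration; the first replicate is given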
Target sequence (P42568 whole entry, looked up): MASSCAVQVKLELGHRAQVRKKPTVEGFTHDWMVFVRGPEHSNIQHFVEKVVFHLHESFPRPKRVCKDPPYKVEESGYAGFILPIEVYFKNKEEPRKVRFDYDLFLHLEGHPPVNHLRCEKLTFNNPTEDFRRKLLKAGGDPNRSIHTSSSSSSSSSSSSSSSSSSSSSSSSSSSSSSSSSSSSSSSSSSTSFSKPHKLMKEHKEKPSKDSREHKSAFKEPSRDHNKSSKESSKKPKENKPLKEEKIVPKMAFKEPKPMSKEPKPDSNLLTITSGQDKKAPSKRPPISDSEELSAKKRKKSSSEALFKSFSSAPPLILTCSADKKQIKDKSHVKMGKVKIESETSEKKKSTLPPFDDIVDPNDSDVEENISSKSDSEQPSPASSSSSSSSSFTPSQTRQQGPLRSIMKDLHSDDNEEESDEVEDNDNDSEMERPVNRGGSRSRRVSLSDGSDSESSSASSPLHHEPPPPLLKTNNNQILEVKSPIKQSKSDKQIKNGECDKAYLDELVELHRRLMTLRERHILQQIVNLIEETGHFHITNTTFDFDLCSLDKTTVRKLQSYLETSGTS
* marks the source's active call; other numbers are inactive results; i = inactive. A portion of the library (hit frequency here may not be typical).

Values run as follows: FGF22 binding | MLL AF4-AF9 inh
COC(=O)c1c2oc(c1C(=O)OC)C(=O)N[C@@H](Cc1ccccc1)Cn1cc(nn1)CNC(=O)[C@H](Cc1ccccc1)NC(=O)N[C@@H](CO)CC2
→ i | 4.5
CCC(=O)N1CC2(C1)[C@H](c1ccc(-c3ccc(F)cc3)cc1)[C@H](CO)N2C(=O)CC
→ i | 0.3
N#C[C@H]1[C@@H](c2ccccc2-c2ccccc2F)[C@@H](CO)N1C(=O)C1CCC1
→ i | -0.8
C[C@H](O)C#Cc1ccc2c(c1)O[C@H](CN(C)CC1CCOCC1)[C@H](C)CN([C@@H](C)CO)S2(=O)=O
→ i | -3.7
COc1ccc(S(=O)(=O)N(C)C[C@H]2Oc3ncc(-c4ccncc4)cc3C(=O)N([C@H](C)CO)C[C@H]2C)cc1
→ i | -3.5
C[C@@H]1CCCCO[C@@H](CN(C)S(=O)(=O)c2ccccc2)[C@H](C)CN([C@H](C)CO)C(=O)c2cc(NC(=O)Nc3ccccc3)ccc2O1
→ i | 0.0
CCCC#Cc1ccc2c(c1)O[C@@H](CN(C)C(=O)Nc1ccc(OC)cc1)[C@@H](C)CN([C@@H](C)CO)S2(=O)=O
→ i | 1.4
CO[C@H]1CN(C)C(=O)c2ccc(NC(=O)c3nc4ccccc4s3)cc2OC[C@@H](C)N(Cc2cncnc2)C[C@@H]1C
→ i | 7.7
C[C@H]1CN([C@@H](C)CO)C(=O)c2cc(-c3ccccc3F)cnc2O[C@@H]1CN(C)C
→ i | -9.3
N#C[C@H]1[C@H](c2ccc(-c3ccccc3)cc2)[C@H](CO)N1C(=O)Cc1ccccc1
→ i | -7.4
C[C@H]1CCCCO[C@@H](CN(C)C(=O)Nc2ccc(C(F)(F)F)cc2)[C@@H](C)CN([C@@H](C)CO)C(=O)c2cc(NC(=O)Nc3ccccc3)ccc2O1
→ i | -2.9
C[C@@H]1CN([C@@H](C)CO)S(=O)(=O)c2ccc(C#CCN(C)C)cc2O[C@H]1CN(C)CC1CCCC1
→ i | 12
C[C@@H]1CN([C@H](C)CO)C(=O)Cc2cc(NC(=O)Nc3ccc(F)cc3)ccc2O[C@@H]1CN(C)Cc1ccccc1
→ i | 0.7
CCCNC(=O)N(C)C[C@H]1Oc2ncc(C#C[C@H](C)O)cc2C(=O)N([C@H](C)CO)C[C@@H]1C
→ i | -0.6
CC(C)[Si](OCCCNS(=O)(=O)c1ccc(Br)cc1)(C(C)C)C(C)C
→ i | -6.6
C[C@@H]1CN([C@H](C)CO)C(=O)c2cc(NC(=O)c3ccccc3)ccc2O[C@@H](C)CCCCO[C@@H]1CN(C)C(=O)Cc1ccccc1
→ i | -1.4
COCC(=O)Nc1ccc2c(c1)C(=O)N(C)[C@H]1CC[C@H](CC(=O)NCCCN(C)C)O[C@H]1CO2
→ i | -23
CN1[C@@H]2c3ccc(-c4cccc(F)c4)c(=O)n3C[C@H]1[C@H](CO)[C@H]2C(=O)N1CCOCC1
→ i | -0.4
Cc1noc(C)c1S(=O)(=O)Nc1ccc2c(c1)C(=O)N([C@H](C)CO)C[C@@H](C)[C@@H](CN(C)C(=O)NC1CCCCC1)O2
→ i | -16
C[C@@H]1CN([C@H](C)CO)C(=O)Cc2cc(NS(=O)(=O)c3cccs3)ccc2O[C@@H]1CN(C)Cc1ccc(Cl)c(Cl)c1
→ i | -0.1
CO[C@@H]1CN(C)C(=O)c2cc(NC(=O)CC(F)(F)F)ccc2OC[C@@H](C)N(C(=O)C2CC2)C[C@H]1C
→ i | -0.7
C[C@H]1CCCCO[C@H](CN(C)C(=O)Cc2ccccc2)[C@@H](C)CN([C@@H](C)CO)C(=O)c2cc(NS(=O)(=O)c3ccccc3)ccc2O1
→ i | 1.2
Cc1noc(C)c1NC(=O)Nc1cccc2c1O[C@H](CN(C)S(=O)(=O)c1cccs1)[C@H](C)CN([C@@H](C)CO)C2=O
→ i | -1.3
C[C@@H]1CCCCO[C@@H](CN(C)S(C)(=O)=O)[C@@H](C)CN([C@@H](C)CO)C(=O)c2cc(NS(=O)(=O)c3ccccc3)ccc2O1
→ i | -2.2
CO[C@H]1CN(C)C(=O)c2ccc(NC(=O)c3cnccn3)cc2OC[C@@H](C)N(CC2CC2)C[C@H]1C
→ i | -1.1
COc1ccccc1NC(=O)N1CCCCN2[C@H](C1)[C@@H](c1ccc(C#CC3CCCC3)cc1)[C@@H]2CO
→ i | -1.4
COc1ccc(NC(=O)N(C)C[C@@H]2Oc3ccc(NS(=O)(=O)c4c(C)noc4C)cc3C(=O)N([C@H](C)CO)C[C@@H]2C)cc1
→ i | -2.5
C[C@@H]1CN([C@H](C)CO)C(=O)Cc2cc(NC(=O)CCC(F)(F)F)ccc2O[C@@H]1CN(C)CC1CCCCC1
→ i | -12
C[C@@H]1CCCCO[C@H](CN(C)C(=O)c2ccncc2)[C@H](C)CN([C@H](C)CO)C(=O)c2cc(NS(=O)(=O)c3cccs3)ccc2O1
→ i | -1.9
COc1ccc(NC(=O)Nc2ccc3c(c2)C(=O)N([C@@H](C)CO)C[C@H](C)[C@H](CN(C)Cc2ccncc2)O3)cc1
→ i | -9.5

Reprinted at random: 7 compounds from above, in no set order.
Values run as follows: FGF22 binding | MLL AF4-AF9 inh
C[C@@H]1CN([C@H](C)CO)C(=O)Cc2cc(NC(=O)Nc3ccc(F)cc3)ccc2O[C@@H]1CN(C)Cc1ccccc1
→ i | 0.7
COc1ccc(NC(=O)Nc2ccc3c(c2)C(=O)N([C@@H](C)CO)C[C@H](C)[C@H](CN(C)Cc2ccncc2)O3)cc1
→ i | -9.5
C[C@H]1CCCCO[C@@H](CN(C)C(=O)Nc2ccc(C(F)(F)F)cc2)[C@@H](C)CN([C@@H](C)CO)C(=O)c2cc(NC(=O)Nc3ccccc3)ccc2O1
→ i | -2.9
C[C@@H]1CN([C@H](C)CO)C(=O)c2cc(NC(=O)c3ccccc3)ccc2O[C@@H](C)CCCCO[C@@H]1CN(C)C(=O)Cc1ccccc1
→ i | -1.4
CC(C)[Si](OCCCNS(=O)(=O)c1ccc(Br)cc1)(C(C)C)C(C)C
→ i | -6.6
C[C@@H]1CN([C@@H](C)CO)S(=O)(=O)c2ccc(C#CCN(C)C)cc2O[C@H]1CN(C)CC1CCCC1
→ i | 12
CN1[C@@H]2c3ccc(-c4cccc(F)c4)c(=O)n3C[C@H]1[C@H](CO)[C@H]2C(=O)N1CCOCC1
→ i | -0.4

(continued)
Values run as follows: FGF22 binding | MLL AF4-AF9 inh
COc1ccc(S(=O)(=O)N(C)C[C@@H]2Oc3ccc(NC(=O)Nc4ccccc4)cc3C(=O)N([C@@H](C)CO)C[C@@H]2C)cc1
→ i | 0.3
CCNC(=O)C[C@@H]1CC[C@H]2[C@H](COc3ccc(NC(=O)c4cscn4)cc3C(=O)N2C)O1
→ i | -1.3
C[C@H](CO)N1C[C@H](C)[C@@H](CN(C)C(=O)Nc2ccc(C(F)(F)F)cc2)Oc2ccc(NC(=O)NC3CCCCC3)cc2CC1=O
→ i | -0.9
C[C@@H]1CN([C@@H](C)CO)C(=O)c2ccccc2-c2ccccc2CO[C@@H]1CN(C)S(=O)(=O)c1cccc(C#N)c1
→ i | 2.1
O=C(C[C@H]1CC[C@H]2[C@@H](COC[C@@H](O)CN2C(=O)C2CCOCC2)O1)NCc1ccncc1
→ i | -5.3
C[C@@H]1CN([C@@H](C)CO)C(=O)c2cccc(NC(=O)c3ccncc3)c2O[C@H]1CN(C)C(=O)Nc1ccc2c(c1)OCO2
→ i | -2.7
C[C@H](CO)N1C[C@H](C)[C@@H](CN(C)Cc2ccc3c(c2)OCO3)Oc2c(NC(=O)c3ccc(-c4nccs4)cc3)cccc2C1=O
→ i | -7.9
C[C@@H]1CN([C@H](C)CO)C(=O)c2cc(Br)cnc2O[C@@H]1CN(C)Cc1ccccc1
→ i | -0.1
C[C@H]1CN([C@@H](C)CO)C(=O)c2cccc(NS(=O)(=O)c3cccs3)c2O[C@@H]1CN(C)CC1CC1
→ i | 0.4
C[C@@H]1CN([C@@H](C)CO)C(=O)c2cc(/C=C/c3ccccc3)cnc2O[C@@H]1CN(C)C
→ i | 1.4
COc1ccc(CN(C)C[C@@H]2Oc3c(NS(=O)(=O)c4ccc(C)cc4)cccc3C(=O)N([C@H](C)CO)C[C@@H]2C)cc1
→ i | 1.7
Cn1cnc(S(=O)(=O)N[C@@H]2CC[C@H](CC(=O)N3CCN(c4ccccc4)CC3)O[C@H]2CO)c1
→ i | 0.3
COCC(=O)N(C)C[C@H]1Oc2ncc(-c3ccccc3C)cc2C(=O)N([C@H](C)CO)C[C@@H]1C
→ i | -1.4
CO[C@@H]1CN(C)C(=O)c2cc(NC(C)=O)ccc2OC[C@H](C)N(CC2CC2)C[C@H]1C
→ i | -1.3
CCNC(=O)C[C@H]1CC[C@H]2[C@@H](COc3ccc(NC(=O)Nc4cccc(C)c4)cc3C(=O)N2C)O1
→ i | -0.3
O=C(C[C@H]1CC[C@@H](NS(=O)(=O)c2ccccc2)[C@H](CO)O1)NCc1ccc(Cl)c(Cl)c1
→ i | -0.9
O=C(N[C@H]1CC[C@H](CCNS(=O)(=O)c2ccc(Cl)cc2)O[C@@H]1CO)c1cccnc1
→ i | 0.0
C[C@@H]1CN([C@@H](C)CO)C(=O)c2cc(C#CC3(O)CCCC3)cnc2O[C@@H]1CN(C)Cc1ccccn1
→ i | -2.6
CNC[C@@H]1OCCCC[C@H](C)Oc2ccc(NC(=O)c3ccncc3)cc2C(=O)N([C@H](C)CO)C[C@H]1C
→ i | -0.9
CN1C(=O)c2cc(NC(=O)NC3CCCC3)ccc2OC[C@H]2O[C@@H](CC(=O)O)CC[C@H]21
→ i | 1.1
CO[C@H]1CN(C)C(=O)c2ccc(NC(=O)C3CC3)cc2OC[C@H](C)N(Cc2cc(F)ccc2F)C[C@H]1C
→ i | 6.9
COCC(=O)Nc1ccc2c(c1)OC[C@H](C)N(Cc1ccncc1)C[C@@H](C)[C@@H](OC)CN(C)C2=O
→ i | -0.2
C[C@@H]1CCCCO[C@@H](CN(C)C(=O)CCC(F)(F)F)[C@H](C)CN([C@@H](C)CO)C(=O)c2cc(NS(=O)(=O)c3cn(C)cn3)ccc2O1
→ i | -4.2
CCC(=O)N1CC2(C1)CN(Cc1ccccn1)[C@H](CO)c1[nH]c3cc(OC)ccc3c12
→ i | -4.7
C[C@@H]1CN([C@H](C)CO)S(=O)(=O)c2ccc(-c3ccccc3)cc2O[C@H]1CN(C)C(=O)CN(C)C
→ i | 5.9
CS(=O)(=O)N1[C@@H](C#N)[C@@H](c2ccc(-c3ccccc3F)cc2)[C@@H]1CO
→ i | 1.1
COCC(=O)Nc1ccc2c(c1)C(=O)N(C)C[C@@H](OC)[C@@H](C)CN(C(=O)c1ccncc1)[C@@H](C)CO2
→ i | 2.5
COc1cccc(CNC(=O)C[C@H]2CC[C@@H]3[C@H](COc4ccc(NC(=O)c5cccs5)cc4C(=O)N3C)O2)c1
→ i | -2.8
Cc1noc(C)c1NC(=O)Nc1cccc2c1O[C@H](CN(C)Cc1ccc3c(c1)OCO3)[C@@H](C)CN([C@H](C)CO)C2=O
→ i | -0.9
CCC(=O)Nc1ccc2c(c1)C(=O)N(C)[C@@H]1CC[C@H](CC(=O)NCCN3CCCCC3)O[C@H]1CO2
→ i | 2.7
COc1ccc(C#Cc2ccc3c(c2)O[C@H](CN(C)S(=O)(=O)c2ccccc2F)[C@@H](C)CN([C@H](C)CO)S3(=O)=O)cc1
→ i | -1.0
C[C@H](CO)N1C[C@H](C)[C@@H](CN(C)CC2CC2)Oc2cc(-c3ccc(F)cc3)ccc2S1(=O)=O
→ i | -5.0
CN1C(=O)c2cc(NC(=O)C3CCOCC3)ccc2OC[C@H]2O[C@H](CC(=O)O)CC[C@@H]21
→ i | -3.2
CC(C)NC(=O)NCC[C@@H]1CC[C@H](NS(=O)(=O)c2ccc(Oc3ccccc3)cc2)[C@H](CO)O1
→ i | 6.6
COc1ccc(CN(C)C[C@H]2Oc3c(NS(=O)(=O)c4ccc(C)cc4)cccc3C(=O)N([C@H](C)CO)C[C@H]2C)cc1
→ i | 5.8
Cc1ccc(S(=O)(=O)N[C@@H]2CC[C@@H](CC(=O)NCCN3CCCCC3)O[C@@H]2CO)cc1
→ i | -1.0
O=C(C[C@H]1C[C@@H]2c3cc(NC(=O)C4CCOCC4)ccc3O[C@@H]2[C@H](CO)O1)NCc1cccnc1
→ i | 0.5
C[C@H]1CN([C@@H](C)CO)C(=O)c2ccccc2-c2ccccc2CO[C@H]1CN(C)S(=O)(=O)c1ccccc1C#N
→ i | -0.9
O=C(C[C@@H]1CC[C@@H]2[C@H](COC[C@@H](O)CN2S(=O)(=O)c2cccc(Cl)c2)O1)N1CCCCC1
→ i | 3.3
C[C@@H]1CN([C@@H](C)CO)C(=O)c2cc(NC(=O)CCC(F)(F)F)ccc2O[C@@H]1CN(C)C(=O)Nc1cccc2ccccc12
→ i | -2.0
C[C@H]1CN([C@@H](C)CO)C(=O)c2cc(NS(=O)(=O)c3cn(C)cn3)ccc2O[C@H]1CN(C)CC1CC1
→ i | -3.2
Cc1noc(C)c1S(=O)(=O)Nc1ccc2c(c1)C(=O)N([C@H](C)CO)C[C@H](C)[C@@H](CN(C)S(C)(=O)=O)O2
→ i | -2.1
C[C@@H]1CN([C@@H](C)CO)C(=O)c2cc(NC(=O)CCCN(C)C)ccc2O[C@H]1CN(C)C
→ i | -3.9
COc1ccc2c3c(n(C)c2c1)[C@H](CO)N(C(=O)C1CC1)CC31CN(C(=O)C2CCOCC2)C1
→ i | -12
COc1ccc(S(=O)(=O)N(C)C[C@H]2OCCCC[C@@H](C)Oc3ccc(NS(=O)(=O)c4cn(C)cn4)cc3C(=O)N([C@@H](C)CO)C[C@@H]2C)cc1
→ i | 0.7
C[C@@H]1CN([C@H](C)CO)C(=O)c2cc(-c3cccnc3)cnc2O[C@@H]1CN(C)C(=O)Nc1ccc(C(F)(F)F)cc1
→ i | 0.1
CCC(=O)N[C@@H]1C=C[C@H](CC(=O)OC)O[C@@H]1CO
→ i | 1.8
